Screens as filed in PubChem.
Six1-Eya2 inh: blocks human Six1 binding to Eya2 | Q15475+O00167 | AlphaScreen GST-Six1/His-Eya2 binding, biochemical; hits give low values; control for the full effect not named in the record | activity change, % (concentration not given with the values) | hit rate 0.56% among 360,000 | AID 651725; in the data active = activity change below about -65%; inconclusive = about -30% to -65%; inactive = above about -30%; note: % is set by controls: 0 for no effect and ±100 for the full control effect
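Homogeneous AlphaScreen proximity assay pairing GST-Six1 with His-tagged Eya2 (added as 5X mix: 250 nM and 500 nM) in 50 mM Tris pH 8.0, 300 mM NaCl, 1 mM TCEP. Glutathione donor and nickel acceptor beads; 1 h, 37 °C, dark.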
TRPML1 blocker: inhibitors of human TRPML1 channel. hit rate 0.02% among 390,000. activity change, negative = inhibition, % (concentration not given with the values). TRPML1-inducible cells, Ca2+ dye fluorescence, FDSS; hits give low values; inhibition of EC80 agonist-evoked calcium signal; in the data active means activity change below about -50%; inconclusive means about -30% to -50%; inactive means above about -30%;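 note: stimulus is agonist 54-4 at its EC80 concentration; % is set by controls: 0 for no effect and ±100 for the full control effect; compound concentration not given in the record; the text of the record puts the active cut at -80%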
Target sequence (Q9GZU1 whole entry, looked up): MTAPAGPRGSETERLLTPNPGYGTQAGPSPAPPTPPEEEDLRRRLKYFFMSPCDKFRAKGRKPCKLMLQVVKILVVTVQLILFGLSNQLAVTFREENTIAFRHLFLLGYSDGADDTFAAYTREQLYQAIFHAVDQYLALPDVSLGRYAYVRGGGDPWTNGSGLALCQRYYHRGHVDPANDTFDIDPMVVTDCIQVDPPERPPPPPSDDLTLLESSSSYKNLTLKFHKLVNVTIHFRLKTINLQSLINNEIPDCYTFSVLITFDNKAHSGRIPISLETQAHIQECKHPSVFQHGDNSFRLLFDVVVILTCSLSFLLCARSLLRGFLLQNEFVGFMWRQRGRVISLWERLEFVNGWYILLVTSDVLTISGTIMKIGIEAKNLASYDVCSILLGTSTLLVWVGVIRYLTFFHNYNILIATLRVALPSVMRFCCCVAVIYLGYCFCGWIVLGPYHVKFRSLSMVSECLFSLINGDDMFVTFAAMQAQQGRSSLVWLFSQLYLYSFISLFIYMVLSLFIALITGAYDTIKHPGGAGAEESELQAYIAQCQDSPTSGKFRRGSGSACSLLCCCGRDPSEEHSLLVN
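Calcium fluorescence in TRPML1-DL cells induced overnight with Tet: a 110 s read after compound pin addition, then a 110 s antagonist read after challenge with 54-4 at 4 uM final (EC80).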
PINK1 expr mod: changes PINK1 expression | Potency, µM (doses to about 76.6 µM), for inactives: at the top dose activation (PINK1 increase), actives largely listed as activators | PINK1 immunofluorescence, high-content cytometry, 24 h | hit rate 0.2% among 410,000 | AID 624263; active = well fitted activation curve with a large enough effect; inconclusive = small, poorly fitted or top-dose-only effect; inactive = flat fitted curve, though single readings scatter; cell line not stated here;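 note: potency is the fitted concentration of half-maximal effect; % of control where 0% means no effect; nearly all actives have a fitted effect of over 65% in size; a mitochondrial uncoupler was the plate control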
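Stable cell line treated 24 h with compounds at 5 concentrations (CCCP controls), then fixed and immunostained for PINK1 plus nuclear and cell stains; PINK1 immunofluorescence quantified by laser-scanning microplate cytometry.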
D2 potentiator: human D2 receptor positive allosteric modulation. AID 624464. P14416. DiscoveRx D2 beta-arrestin cells, luminescence, 90 min; 100% = 57 uM dopamine signal. hit rate 0.23% among 360,000. potentiation, % (no concentration beside the values); active = potentiation of 50% or more; inconclusive = 30% to 50%; inactive = 30% or less;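 note: compound concentration not given in the record; tested on top of an EC20 dose of dopamine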
Target sequence (P14416 whole entry, looked up): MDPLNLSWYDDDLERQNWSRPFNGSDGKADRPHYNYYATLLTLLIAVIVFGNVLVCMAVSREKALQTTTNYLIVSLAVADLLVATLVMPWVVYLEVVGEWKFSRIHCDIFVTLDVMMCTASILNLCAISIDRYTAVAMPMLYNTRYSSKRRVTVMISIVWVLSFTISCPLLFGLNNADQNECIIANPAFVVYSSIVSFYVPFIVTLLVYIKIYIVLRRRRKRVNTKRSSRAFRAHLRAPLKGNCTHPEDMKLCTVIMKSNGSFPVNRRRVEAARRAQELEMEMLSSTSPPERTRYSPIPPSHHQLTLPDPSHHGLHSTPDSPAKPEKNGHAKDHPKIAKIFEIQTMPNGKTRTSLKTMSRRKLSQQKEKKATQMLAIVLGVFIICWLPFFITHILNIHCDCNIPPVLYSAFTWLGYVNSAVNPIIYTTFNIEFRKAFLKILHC
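PathHunter D2 cells, attached overnight at 37 deg C, received compound in DMSO plus dopamine at EC20 (50 nM final) for 90 min at 37 deg C. Beta-arrestin recruitment was read as luminescence after 1 h with detection reagent at ambient temperature.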
D2 agonist: activates the human D2 dopamine receptor. hit rate 0.084% among 360,000. activation, % (test concentration not listed). P14416. DiscoveRx PathHunter D2 beta-arrestin, luminescence, 90 min; 100% = 57 uM dopamine signal; in the data active = activation above about 40%; inconclusive = about 15% to 40%; inactive = below about 15%; note: compound concentration not given in the record; the text of the record calls up to 30% inactive
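Agonist mode: compounds alone added to overnight-plated D2 PathHunter cells for 90 min at 37 C, with 57 uM final dopamine (EC100) defining full response. Beta-arrestin recruitment detected by chemiluminescent reagent, read after 1 h at ambient temperature.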
TRPML1 ag: human mucolipin-1 channel agonism; TRPML1-expressing cells, Ca2+ dye fluorescence, FDSS; host cell line not named in the record; reference of the full effect not given here; Q9GZU1; hit rate 0.12% among 410,000; activation, % (test concentration not listed); in the data active = activation above about 50%; inconclusive = about 30% to 50%; inactive = below about 30%; note: 0% is about no effect; the text of the record puts the active cut at 80%
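Agonist activity was taken from a 110 s kinetic Ca2+ dye read on the FDSS after pinning compounds onto TRPML1-DL cells. The cells were seeded at 1,500/well with Tet inducer, incubated about 16 h, then dye-loaded at room temperature.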
The depositor's hits bear a star; ? = inconclusive; . = no result given; & = joins results of further samples; [ ] = dose if it differs, or a comment.

canonical_smiles	D2 agonist	D2 potentiator	Six1-Eya2 inh	TRPML1 ag	PINK1 expr mod	TRPML1 blocker
CC(C)(C)NC(=O)C(c1ccccn1)N(C(=O)c1ccc2c(c1)OCCO2)C1CCCC1 (stereo unspecified)	-3.2	-20.1	0.8	0.8	1.2%	-5.3
CN(C)C(CNC(=O)c1ccccc1C(F)(F)F)c1ccco1 (stereo unspecified)	-3.7	-3.7	-4.7	0.4	1.9%	8.4
CN(CCc1ccccc1)c1ccc([N+](=O)[O-])cn1	-3.1	-0.2	-1.5	1.0	0.3%	-0.6
CCC(C)c1ccc(NC(=O)Nc2cccnc2)cc1 (stereo unspecified)	1.9	-8.0	0.4	0.9	0.7%	17.2
CCOC(=O)C1CCN(C(=O)CCc2ccccc2)CC1	-3.8	-5.1	5.9	-0.6	-0.6%	4.1
CCOC(=O)C1CSC2(CCC(c3ccccc3)CC2)N1 (stereo unspecified)	4.4	-6.6	-2.2	0.0	0.2%	2.5
Cc1ccc(NC(=O)CN(C)S(=O)(=O)c2ccc(Br)s2)cc1F	2.7	-7.3	-0.1	1.0	5.9%	-16.7
COc1ccc2sc(-c3ccc(S(C)(=O)=O)cc3)c(-c3ccc(SC)cc3)c2c1	-7.1	-3.8	-12.0	0.9	0.2%	5.1
CCc1nnc(NC(=O)CCC(=O)NC2CCCCC2)s1	-5.5	-7.1	4.4	-0.6	-0.5%	36.3
CN1CCN(C(c2cccs2)c2nnnn2Cc2ccc(F)cc2)CC1 (stereo unspecified)	-3.1	0.0	6.5	-0.3	-0.5%	-11.7
CN(C)c1ccc(N=Nc2ccccc2C(=O)OCC(=O)NCC2CCCCC2)cc1	-4.0	-23.6	-74.1*	0.8	1.4%	-5.4
COC(=O)C1=C[C@@H](C(=O)OC)C2C3=C(C(=O)C24CCCCC4)[C@H](C)n2c(=O)n(C)c(=O)n2[C@@H]3C1 (stereo partly specified)	1.2	-21.0	-0.2	-0.2&0.6	-0.7%	-0.6&3.5

(continued)
canonical_smiles	D2 agonist	D2 potentiator	Six1-Eya2 inh	TRPML1 ag	PINK1 expr mod	TRPML1 blocker
NC(=O)C1CCN(CCC(=O)Nc2cccc(Cl)c2)CC1	-1.7	-24.8	5.5	-0.4	-1.1%	2.8
CC(=O)Nc1cccc(Oc2ncnc3scc(-c4ccc(C(C)C)cc4)c23)c1	1.2	5.0	2.4	1.4	-2.0%	-1.0
COc1ccc(NC(=O)c2sc3nc4n(c(=O)c3c2C)CCC4)cc1Cl	.	.	.	-0.4	1.5%	22.2
CC1(C)CC(=O)C(=Cc2cn(CCC#N)nc2-c2ccc(Cl)cc2)C(=O)C1	0.3	-0.8	18.6	0.6	3.7%	4.5
O=C(CSc1nc2ccccc2c(=O)n1Cc1ccco1)N1CCCCCC1	-2.8	-11.2	7.1	1.5	-1.6%	13.4
CC(C)Nc1ccc(-n2nc3ccccc3[n+]2[O-])cc1	1.3	1.3	4.1	-0.4	-0.3%	2.9
COc1ccc(N2CCN(C(=O)CCS(=O)(=O)c3ccc(C)cc3)CC2)cc1	-1.0	-6.8	-6.3	-0.1	0.4%	-0.2
CCc1nc2ccc(C(=O)N3CCN(C)CC3)cn2c1N(CCC(C)C)CCN(C)C	-4.3	-6.2	-4.6	-0.4	-1.4%	.
CC(=O)[C@@H]1[C@@H](C)N(Cc2ccccc2)C(=O)N[C@H]1c1ccccc1	-3.5	-8.9	25.9	-0.2	2.1%	-10.2
CN1C(=O)Cc2cc(S(=O)(=O)NCCc3ccccc3)ccc21	-2.0	-13.6	2.1	-0.1&0.0	-1.0%&2.6%	-13.1&10.1
Cc1cc(C)nc(NC(=O)c2ccc(C)c([N+](=O)[O-])c2)n1	0.2	-10.6	8.9	0.5	-0.8%	4.4
O=C(COC(=O)C12CC3CC(CC(C3)C1)C2)Nc1ccc([N+](=O)[O-])cc1Cl	2.6	-4.0	1.5	1.7	0.1%	59.3

Other results:
canonical_smiles	D2 agonist	D2 potentiator	Six1-Eya2 inh	TRPML1 ag	PINK1 expr mod	TRPML1 blocker
Cc1cc(C)cc(NC(=O)c2ccc3c(c2)nnn3C2CCCC2)c1	.	.	.	1.6	4.9%	-20.3
Cc1ccc(OCC(=O)Nc2ccc3c(c2)nc(CCN2CCN(c4ccccn4)CC2)n3C)cc1	1.8	-24.7	-19.3	-0.5	10.0%	10.0
COc1ccc(/C=N/NC(=O)c2sc(C)nc2C)cc1	0.1	-13.9	0.1	-0.8	4.3%	6.1
O=C(c1ccc(Cn2c(=S)[nH]c3ccc(N4CCOCC4)cc3c2=O)cc1)N1CCC(N2CCCCC2)CC1	3.1	-2.0	-2.1	-0.7	2.8%	-1.8
COc1cccc(/C=N/n2c(-c3cc(C)[nH]n3)n[nH]c2=S)c1	-6.1	-15.5	-13.0	1.7	-0.1%	-3.9
Cc1c(N(C)S(=O)(=O)c2ccc(Cl)c(C(=O)NCC3CCCO3)c2)c(=O)n(-c2ccccc2)n1C (stereo unspecified)	-6.8	-5.6	-2.4	-0.6	-0.5%	28.4
O=C(CNC(=O)N1CC(=O)Nc2ccccc21)NCc1ccc(Cl)cc1	-2.4	-9.5	-0.3	-0.7	-0.3%	-3.7
COc1ccc(/C(O)=C2/C(=O)C(=O)N(CCCC(=O)O)C2c2ccc(OC)cc2)cc1 (stereo unspecified)	-3.1	-2.7	0.4	-0.3	0.9%	2.8
CS(=O)(=O)N(CC(=O)N1CCCCC1)C1CCCCC1	-1.3	-5.6	4.2	0.7	-0.6%	0.7
COCCNC(=O)Cn1cc(/C=C(\C#N)C(=O)NC2CC2)c2ccccc21	-6.5	-3.2	-1.0	0.6	6.0%	-6.5
COc1ccc(CCNC(=O)COC(=O)/C=C/c2cc(OC)c(OC)c(OC)c2)cc1OC	6.8	-2.8	-0.4	0.9	-2.2%	16.6
O=C(CNC(=O)c1ccncc1)N/N=C/c1ccccc1[N+](=O)[O-]	-3.0	-5.3	4.5	0.6	-1.0%	2.4

Carrying on.
canonical_smiles	D2 agonist	D2 potentiator	Six1-Eya2 inh	TRPML1 ag	PINK1 expr mod	TRPML1 blocker
O=C(Nc1ccc2oc(-c3ccccc3F)nc2c1)c1cncc(Br)c1	1.4	11.0	6.7	3.6	-0.2%	10.2
Cn1c(SCc2ccc(Cl)cc2Cl)nc(C(F)(F)F)cc1=O	-1.5	-2.9	1.2	0.8	7.1%	11.9
O=[N+]([O-])c1cc(/C=N/Nc2nc(N3CCOCC3)nc(N3CCOCC3)n2)ccc1Cl	1.5	-3.9	9.1	2.9	1.1%	-0.8
COc1ccc(S(=O)(=O)N(C)CC(=O)NCCC2=CCCCC2)cc1C	-2.3	-11.2	0.5	-0.3	3.7%[38.3 µM]	6.6
Cc1cc(C)nc(NNC2=CC(=[N+]3CCCCC3)CC(C)(C)C2)n1	-1.2	-5.2	6.8	-0.3	1.5%	11.9
CCc1ccc(CN2CCSCC2)cc1	-4.6	-20.6	-3.0	-1.0	2.8%	13.8
CCN1c2ccccc2-c2nc(SCC(=O)Nc3cc(OC)cc(OC)c3)ncc2S1(=O)=O	.	.	.	0.8	0.6%	12.2
CC(=O)N1CCN(c2ccc(NC(=O)c3ccc(Cl)cc3)cc2)CC1	-1.5	-2.8	3.7	1.5	-3.4%	-16.3
CCCCOC(=O)Oc1ccc2c(=O)c(Oc3cccc(C)c3)coc2c1	2.1	-8.9	-13.6	5.4	1.9%	-11.4
Cc1cc(C)cc(NC(=O)CN(C)S(=O)(=O)c2cccc3nsnc23)c1	-4.9	-17.4	-10.9	1.3	-1.6%	-6.2
Cc1ccc(C)c(S(=O)(=O)N2CCN(C(=O)Cc3sc(C)nc3-c3ccc(F)cc3)CC2)c1	-0.7	-10.5	7.9	3.3	2.0%	18.6
O=C(NCCc1ccc(S(=O)(=O)N2CCCC2)cc1)c1cccs1	-0.8	-19.1	-1.7	-0.8	0.8%	-5.1

Carrying on:
canonical_smiles	D2 agonist	D2 potentiator	Six1-Eya2 inh	TRPML1 ag	PINK1 expr mod	TRPML1 blocker
Cc1noc(C)c1COc1cccc(C(=O)NCCc2c[nH]c3ccccc23)c1	-1.8	-7.0	-13.1	-0.7	3.2%	-4.6
Cc1cc(C(=O)Nc2nc(-c3ccccn3)cs2)ccc1[N+](=O)[O-]	0.9	0.8	-71.5*	-0.5	3.2%	2.6
CCN(c1ccc(N=Cc2c(O)n(Cc3ccc(OC)cc3)c(=O)c3ccccc23)cc1)C(C)C	-5.6	-4.2	12.0	22.3	2.2%	6.1
COc1ccc(OC)c(-c2csc(NC(=O)C3COc4ccccc4O3)n2)c1 (stereo unspecified)	2.4	10.1	-10.3	4.0	4.2%	21.7
CC(/C=C1\SC(=S)N(NS(=O)(=O)c2ccc(C)cc2)C1=O)=C\c1ccccc1	1.9	-3.5	-4.0	-0.3	-0.1%	22.3
CC(=O)Nc1ccc(-c2cc(-c3ccc(NC(C)=O)cc3)nc(-c3ccc(NC(C)=O)cc3)n2)cc1	-3.3	-7.6	10.2	-0.1	8.5%	9.5
CC(=O)c1ccc(N2CCN(S(=O)(=O)c3ccc4[nH]c5c(c4c3)CCCC5)CC2)cc1	.	.	.	1.8	-0.3%	-1.0
C#CCOCCOCCOCCNc1nc(N2CCN(C(=O)[C@H]([C@@H](C)CC)n3cc(CCCN=C(N)N)nn3)CC2)nc(N2CCN(C(=O)[C@H](C)n3cc(CCCN=C(N)N)nn3)CC2)n1	-4.2	-11.2	16.4	-0.1	0.7%	-8.7
O=S(=O)(Cc1cc(-c2ccccc2Cl)no1)c1ccccc1	-3.9	-5.9	0.9	0.2	3.8%	-9.7
O=S(=O)(NCc1ccc(Cl)cc1)c1ccc(N2CCCCS2(=O)=O)cc1	.	.	.	-0.4	-0.9%	-10.9
O=c1[nH][nH]cc1C=Nc1ccc(Oc2ccccc2)cc1	-2.5	2.7	-13.0	1.0	0.9%	1.6
COc1ccc(NS(=O)(=O)c2ccc3c(c2)oc(=O)n3C)cc1Cl	3.0	-12.3	-8.2	-0.1&-0.8	0.3%&1.5%	-19.4&3.2
CCCCCC(=O)N/N=C/c1ccc([N+](=O)[O-])o1	0.0	-11.9	-3.2	1.8	5.3%[38.3 µM]	-1.8
CC(C)N(Cc1ccccc1)C(=O)COC(=O)c1cnc(Cl)c(Cl)c1	-2.4	-18.7	?	1.3	-1.5%	15.6
O=C(COC(=O)c1ccccc1NCCO)Nc1cc(C(F)(F)F)ccc1N1CCOCC1	-3.5	-15.7	11.3	2.3	1.2%	42.8
